Assay outcomes: PubChem BioAssay, several laboratories
PrP 5UTR inh: suppresses PrP 5' UTR mRNA reporter expression; cell-based PrP 5' UTR mRNA reporter, plate reader; inhibition, % (no concentration beside the values); hit rate 0.35% among 340,000; AID 488862;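 active means every replicate at 50% or more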;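 further: 0 = median of the neutral control wells; tested in H4 reporter cells; numbers are from one replicate; inactives centre near -14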
BJeLR viability: BJeLR cell viability loss; inhibition, % (no concentration beside the values); hit rate 0.17% among 300,000; BJeLR (HRASV12) viability, CellTiter-Glo ATP luminescence, 48 h; reference of the scale not given here; AID 1554;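 active means replicate mean above 50%; inconclusive means above 50% but judged a plate artefact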;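 further: 50 nL library stock added to about 25 µL; numbers are from one replicate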
Sa ugtP lethal: growth inhibition of S. aureus ugtP deletion strain; S. aureus RN4220 ugtP deletion, OD600 growth, 16 h; some inactives read as strong as hits; growth inhibition, % (concentration not given with the values); hit rate 0.54% among 330,000; AID 1259309;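 active means z-score under -3 and OD600 up to 0.15 on both plates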;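 further: plate controls were untreated wells for no effect and antibiotic for full effect; wells of about 80 µL received 100 nL stock; the first replicate is given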
RN4220 kill: S. aureus RN4220 growth inhibition; AID 1259311; hit rate 0.33% among 330,000; inhibition, % (test concentration not listed); OD600, 16 h;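 active means z-score of -3 or lower and OD600 up to 0.18 on both plates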;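 further: plate controls were untreated cells for no effect and reference antibiotic for full effect; stock transfer was 100 nL into about 80 µL; one replicate is shown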
Bead autofluor: compound fluorescence in toxin protease inhibitor counterscreen; compound autofluorescence counterscreen, microsphere flow cytometry; stronger effect = higher value; fluorescence intensity (no concentration beside the values); hit rate 3.1% among 360,000;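 active means at least 3 SD above the mean of all compounds, about 16000 in these data; inconclusive means too few beads counted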;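 further: 100 nL of 1 mM stock went into each well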
Mtb hypoxia rep: inhibitors of hypoxia-regulated fluorescent reporter in Mycobacterium tuberculosis. M. tuberculosis hypoxia-regulated fluorescent reporter, fluorescence. fluorescence inhibition, % (test concentration not listed). hit rate 0.1% among 300,000. AID 1159583;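 active means 35 to 45% if threefold the growth effect, above 45% if 1.5-fold the growth effect; inactive means the rest, general growth blockers included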;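 further: wells of about 50 µL received 100 nL stock; 0% = vehicle wells and 100% = reference inhibitor wells; whole bacteria with a GFP reporter of the hypoxia response; strong numbers were not always called active; many hits fall short of the cut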
Mtb hypoxia rep growth: recorded beside Mtb hypoxia rep, whose call it bears; growth inhibition, %; measured here: M. tuberculosis growth (absorbance);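 0% = vehicle and 100% = reference antibiotic; read after six days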
Active calls of the source: *; ? = inconclusive; · = no result given.

Structure	PrP 5UTR inh	BJeLR viability	Sa ugtP lethal	RN4220 kill	Bead autofluor	Mtb hypoxia rep	Mtb hypoxia rep growth
CCOC(=O)CC1c2ccc(C(F)(F)F)cc2S(=O)(=O)N1c1cccc(OC)c1 (stereo unspecified)	·	·	3	8.5	·	7	4
Cn1c(=O)n(-c2cccc(Cl)c2)c(=O)c2c3c(sc21)COC(C)(C)C3	-8	-2	2	3.5	17764*	14	6
Cc1csc(SCC(=O)NC2CCCCC2)n1	-24	-10	2	4.4	3106	·	·
O=C1CSC(c2ccc(Cl)cc2)N1c1cccnc1 (stereo unspecified)	-23	-6	0	0.3	6034	-8	6
CN1CCN(C(=S)SCC(=O)Nc2nc(-c3ccccc3)c(-c3ccccc3)o2)CC1	-29	-22	0	-11	2136	-2	-6
CCCCn1c(SCC(=O)NC(=O)NCc2ccco2)nc2cc(S(N)(=O)=O)ccc21	-14	9	-1	4.4	8741	-12	-3
Cc1cccc2cc(=O)[nH]c(C)c12	-12	3	5	7.1	3228	17	4
COc1ccccc1/C=N/NC(=O)c1sc(C)nc1C	-9	-2	·	·	1974	·	·
COC(=O)c1c(C(=O)OC)c2cc(C(=O)c3ccccc3)ccn2c1Cl	5	-11	15	5.6	4737	·	·
CC(=O)c1cnn(-c2ccc(Cl)cc2)c1C	-8	-5	-1	3.1	2943	14	4
Cn1c(CCN2CCN(c3ccccn3)CC2)nc2cc(NC(=O)COc3ccc([N+](=O)[O-])cc3)ccc21	0	4	-4	0.2	5814	11	-1
Cc1cc([N+](=O)[O-])ccc1NC(=O)/C=C/c1cccs1	-80	21	·	·	2074	·	·
COc1ccccc1N1CCN(C(=O)Cn2c(=O)oc3cc(S(=O)(=O)N4CCCC4)ccc32)CC1	-6	20	-10	2.5	5891	-7	2
CCN(CC)S(=O)(=O)c1ccc(C(=O)NCC(=O)NCCCc2ccccc2)cc1	-18	-11	2	3.7	4080	2	7
O=C(COC(=O)c1ccc2ncsc2c1)Nc1ccccc1Br	-6	·	-4	5.5	3879	-8	3
Cc1nn(Cc2ccccc2)c(C)c1NC(=O)CCCn1nc([N+](=O)[O-])cc1C	-44	-9	-2	3.7	4355	9	2
CNCC(=O)Nc1ccc(OC(F)(F)F)cc1	0	5	2	3.2	4959	0	-3
O=S(=O)(c1cccc(Br)c1)N1CCN(c2ncnc3scc(-c4ccccc4)c23)CC1	·	·	99*	98*	5338	6	-3
CCc1ccc(-c2cc(C(=O)NN3CCOCC3)c3ccccc3n2)s1	-17	2	3	3.2	3317	1	13
COc1ccccc1C(=O)Nc1ccc(C(=O)N2CCCC2)cc1	-23	5	11	3.5	10145	1	4

Further entries
Structure	PrP 5UTR inh	BJeLR viability	Sa ugtP lethal	RN4220 kill	Bead autofluor	Mtb hypoxia rep	Mtb hypoxia rep growth
COc1ccc(C(C(=O)NC2CCCC2)N(Cc2cccnc2)C(=O)c2snc(C(N)=O)c2N)cc1OC (stereo unspecified)	-32	1	·	·	3925	·	·
COCCNC(=O)Nc1ccc2c(c1)N(C)C(=O)CS2	-9	-1	6	0.8	9111	2	6
C#CCN1Cc2ccccc2Oc2cc(Br)ccc2S1(=O)=O	-20	·	-16	1.9	4025	6	7
Cc1ccc(S(=O)(=O)N2[C@@H](c3ccc(C#N)cc3)C(C(=O)O)=C[C@H]2C(C)(C)C)cc1	-3	·	6	8.0	3028	-3	1
CCOC(=O)NC(Nc1ccc(C)cn1)(C(F)(F)F)C(F)(F)F	36	2	2	1.3	2455	·	·
CCc1ccccc1NC(=O)C(C#N)Cc1cccnc1 (stereo unspecified)	-27	2	-9	8.7	10849	4	5
CCOC(=O)N1CCN(S(=O)(=O)c2ccc3c(c2)oc(=O)n3C)CC1	-35	-6	-3	-1.3	9984	6	3
CC1(C)CCCC2=C1CC1C(=O)N(O)C(=O)C1C2 (stereo unspecified)	-11	-1	4	3.6	15959	8	6
COc1ccc(C=NNC(=S)Nc2ccc(F)cc2)cc1OC	-15	·	20	5.1	3011	12	12
CN(C)/C=C(\C#N)C(N)=C(C#N)C#N	-21	-9	-5	-0.5	4503	-8	4
O=C(CSc1nnc(-c2ccccc2F)n1C1CCCCC1)N1CCCC1	-17	-1	0	6.5	6406	3	7
O=C(COC(=O)/C=C/c1ccccc1F)Nc1nnc(-c2ccccc2)o1	-18	-4	-7	7.8	5210	7	3
COc1c(O)cccc1-c1nnn(CCC(=O)OCC(=O)c2ccccc2)n1	-1	2	-3	6.3	9694	0	0
Cc1cc(C(=O)NN=Cc2cccc([N+](=O)[O-])c2O)n[nH]1	·	·	4	15	·	12	10
Nc1c(Cl)c(Cl)nc(C(=O)NN=Cc2cccnc2)c1Cl	·	·	15	-0.3	·	-8	-14
O=C(CCCOc1ccccc1)Nc1cccc(C(=O)O)c1	-13	-1	4	7.2	3256	6	6
Cc1cc(C(=O)N/N=C/C=C/c2ccc3c(c2)OCO3)n[nH]1	-26	-13	·	·	2874	·	·
CC(=O)NCCCNS(=O)(=O)c1ccc(C)cc1	-22	10	5	7.9	4551	16	1
O=C(COC(=O)/C=C/c1cccs1)Nc1nc(-c2cccc(Br)c2)cs1	-29	2	3	-1.9	4757	8	-1
O=C(Cc1c(Cl)cccc1Cl)N1CCN(Cc2ccccc2)CC1	-8	1	5	-4.7	4556	-4	5

The list goes on:
Structure	PrP 5UTR inh	BJeLR viability	Sa ugtP lethal	RN4220 kill	Bead autofluor	Mtb hypoxia rep	Mtb hypoxia rep growth
CC(C)(C)C1CCC(=O)N(CCOc2ccccc2)CC1 (stereo unspecified)	-20	2	-13	-9.0	3137	·	·
Cc1c(NC(=O)C(C)OC(=O)COc2cccc3c2OC(C)(C)C3)c(=O)n(-c2ccccc2)n1C (stereo unspecified)	-7	2	7	-2.4	3892	·	·
COc1ccc2c(=O)c3c(=O)n(Cc4ccco4)c(-c4ccccc4)nc3oc2c1	-18	-10	-8	8.4	10518	0	8
Cc1onc(-c2ccccc2Cl)c1C(=O)NCC(=O)O	-21	-11	-1	1.9	9391	13	8
O=C(COC(=O)/C=C/c1cccs1)Nc1ccc(F)cc1	-11	·	2	0.7	4149	-21	-3
Fc1ccc(NN=Cc2ccc(N3CCOCC3)cc2)c(F)c1	·	·	7	8.1	·	17	16
CCCCC(=O)Nc1cccc(NC(=O)c2ccc(Br)cc2)c1	-46	-3	-1	8.8	24448*	10	1
CC(=O)c1cccc(S(=O)(=O)N2CCC(C(=O)N(C)Cc3ccc(Cl)s3)CC2)c1	1	·	1	-1.8	3917	-2	4
CC[C@@H](C)[C@H](NC(=O)Cc1c(C)c2cc3c(C)coc3c(C)c2oc1=O)C(=O)O	-18	-7	-1	-0.4	4147	7	-1
O=c1c2ccccc2nc2n1CC/C2=C/N1CCN(c2cccc(C(F)(F)F)c2)CC1	-27	3	-7	-1.8	7128	-10	-5
C=CCNC(=O)NS(=O)(=O)c1ccc(C)cc1	10	-7	4	0.6	2455	-2	-1
Cc1cc(C)n(C(=O)c2ccc(C)c(S(=O)(=O)N3CCCCC3)c2)n1	-3	7	13	6.9	16992*	10	5
CCc1ccccc1NC(=O)COc1ccc2c(c1)OCO2	30	-4	-1	9.4	7700	8	9
Cc1cc2oc(=O)cc(Cn3ncc(Cl)c(Cl)c3=O)c2cc1Cl	2	-1	-11	11	2776	15	11
COc1ccc2nc(N/C(N)=N/C(=S)Nc3ccccc3)nc(C)c2c1	-14	0	-25	2.9	5338	-13	-8
CCc1ccc(C(C)NC(=O)c2ccc3c(c2)OCO3)cc1 (stereo unspecified)	-29	-3	0	-2.6	6129	22	11
CC(C)(C)OC(=O)N1CCC(NC(=O)c2nc[nH]c2C(=O)N2CCN(c3ccccc3)CC2)CC1	-8	·	1	7.7	3418	19	7
O=C(Nn1c(C2CCCCC2)nc2ccccc2c1=O)c1ccc(Cl)c([N+](=O)[O-])c1	-11	-1	-6	-3.1	2115	0	-1
Cc1ccc(S(=O)(=O)Oc2ccc(/C=C3/N=C(c4ccccc4)OC3=O)cc2)cc1	-4	-7	11	-3.3	10110	0	8
COc1ccccc1-n1nnnc1SCC(=O)Nc1ccc(C)c(N)c1	-21	0	15	3.4	4069	3	3

Next section
Structure	PrP 5UTR inh	BJeLR viability	Sa ugtP lethal	RN4220 kill	Bead autofluor	Mtb hypoxia rep	Mtb hypoxia rep growth
Cc1ccc(C(C)C)c(OCC(O)CN2CCOCC2)c1 (stereo unspecified)	-40	6	13	5.1	10462	6	4
Cc1nn2c(N3CCN(C)CC3)cc(C(C)(C)C)nc2c1-c1ccccc1	-7	-2	-14	-12	5955	14	26
CCOC(=O)C1(CC2CC2)CCN(S(=O)(=O)/C=C/c2ccccc2)CC1	-3	6	13	-5.2	4331	4	3
COc1ccc(C2C(=O)N(C3CCCCC3)CC(=O)N2Cc2ccco2)cc1 (stereo unspecified)	-15	-9	-3	0.7	20572*	2	-3
Cc1ccc(CNC(=O)CS(=O)(=O)Cc2nc(-c3ccccc3F)oc2C)cc1	4	3	-5	3.9	6007	3	4
O=C(Nc1ccc(F)cc1)C1C2CCC3C(CCC21)C3(Cl)Cl (stereo unspecified)	-19	0	4	2.6	?	1	9
CCc1nnc(NC(=O)COc2ccc3c(c2)OCO3)s1	-30	-9	-2	4.1	3754	-5	-8
O=C(NNC(=O)c1ccc([N+](=O)[O-])cc1)c1ccc(Br)cc1	4	-8	1	3.3	3292	3	-3
CCCC(CCC)C(=O)OC1CC2CCC(C1)[N+]2(C)C (stereo unspecified)	·	·	1	0.9	·	0	2
CC(=O)N1N=C(c2ccc(Cl)cc2)CC1c1ccco1 (stereo unspecified)	-11	12	-15	2.5	5847	6	1
Cc1ccc(-c2nc3cnccn3c2Nc2ccc3c(c2)OCO3)o1	-8	5	3	4.1	5753	8	8
O=C(c1ccco1)N1CCN(C(=O)C2CCCN(S(=O)(=O)c3cccc4nsnc34)C2)CC1 (stereo unspecified)	-8	-1	-2	0.0	12847	2	11
COc1ccc(C/C(N)=N/OC(=O)c2cccs2)cc1	-12	2	9	5.5	4378	11	5
Cc1cc(C)n(S(=O)(=O)c2cc(C(=O)O)c(Cl)cc2Cl)n1	-41	11	3	0.0	10361	11	7
O=C(NCC1CCCO1)c1cc2cc(F)ccc2[nH]1 (stereo unspecified)	-25	5	-11	-0.4	3331	0	1
COc1ccc(NC(=O)CCn2cc(C)c3ccccc32)cc1	-58	4	15	-0.1	3469	12	11
O=C(N/C(=C/C=C/c1ccccc1)C(=O)N1CCOCC1)c1ccccc1Cl	-7	-4	6	4.0	3570	-4	3
CCC(CC)=NNC(=O)c1ccccc1OCc1ccc(F)cc1	-29	10	4	0.0	9292	11	15
O=C(Nc1ccc(C(F)(F)F)cc1Cl)c1ccc(Cn2cc(Br)cn2)o1	-53	-1	-3	-3.8	11651	5	-4
Cc1ccc(Nc2cc(-n3nc(C)cc3C)ncn2)c(C)c1	7	6	-8	1.2	4671	10	11

Carrying on:
Structure	PrP 5UTR inh	BJeLR viability	Sa ugtP lethal	RN4220 kill	Bead autofluor	Mtb hypoxia rep	Mtb hypoxia rep growth
O=C(c1ccccc1)c1ccc(C(=O)N2CCN(c3ccccc3Cl)CC2)cc1	-6	·	1	5.0	4002	8	5
CC(C)NC(=O)c1cc(-c2ccc(Br)cc2)on1	-184	-11	14	16	16071	9	7
COc1ccc(OC)c(NC(=O)c2cccc(N3C(=O)C4C5C=CC(C6CC56)C4C3=O)c2)c1 (stereo unspecified)	2	0	2	1.5	5769	3	3
COc1cc(C(=O)NCC(=O)NN=Cc2cccs2)cc(OC)c1OC	·	·	-2	8.3	·	4	8
CCN(CC)C(=O)c1csc(Nc2cccc3ccccc23)n1	-12	-2	-4	7.9	3928	-7	-6
CCCn1c(C(=O)c2ccccc2)nc2ccccc21	-51	5	·	·	4448	·	·

Shown with each value named: three of the compounds above.
Molecule: CCCn1c(C(=O)c2ccccc2)nc2ccccc21
  PrP 5UTR inh = -51
  BJeLR viability = 5
  Sa ugtP lethal = ·
  RN4220 kill = ·
  Bead autofluor = 4448
  Mtb hypoxia rep = ·
  Mtb hypoxia rep growth = ·
Molecule: CC(C)NC(=O)c1cc(-c2ccc(Br)cc2)on1
  PrP 5UTR inh = -184
  BJeLR viability = -11
  Sa ugtP lethal = 14
  RN4220 kill = 16
  Bead autofluor = 16071
  Mtb hypoxia rep = 9
  Mtb hypoxia rep growth = 7
Molecule: CCN(CC)C(=O)c1csc(Nc2cccc3ccccc23)n1
  PrP 5UTR inh = -12
  BJeLR viability = -2
  Sa ugtP lethal = -4
  RN4220 kill = 7.9
  Bead autofluor = 3928
  Mtb hypoxia rep = -7
  Mtb hypoxia rep growth = -6
